Bioassay records from PubChem.
Ecoli rRNA inh: reduced GFP signal of wild-type E. coli, primary screen, bacterial rRNA inhibitor project, GFP/RFP fluorescence, OD600, single point. AID 720706, 2013. actives 1.6% (n = 350,000). GFP signal change (wild-type ribosome), % (test concentration not listed). E. coli WT GFP vs humanized-ribosome RFP mutants, 24 h; hits give low values; DMSO median 0, no signal -100;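 active = significant combined selectivity score with lowered wild-type GFP, culture density cut under 30%, mutant RFP and density less affected; inactive = any of these conditions unmet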; note: one replicate is shown; some compounds called inactive have numbers as strong as hits
A1 inh: caspase 3/7 activation in MEF A1-2A-BIM cells, primary screen, A1 inhibitor project, cell-based, luminescence, HTS; caspase activation, % (concentration not given with the values); actives 0.066% (n = 330,000); Caspase-Glo 3/7 luminescence, 3 h; percent of clofoctol response, vehicle zero; AID 2462, 2010;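 active = over half of replicate activation scores above 10%, or exactly half above 10 with the replicate mean above 10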;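 note: wells of about 30 µL received 50 nL stock; many hits fall short of the cut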
UCH37 DUB inh: inhibitors of human UCH37 deubiquitinase, primary screen, biochemical, Ub-AMC cleavage, fluorescence; Ubiquitin carboxyl-terminal hydrolase isozyme L5 (Homo sapiens), Q9Y5K5; purified proteasome/UCH37; inhibition, % (no concentration beside the values); actives 0.33% (n = 330,000); AID 588478, 2011;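 active = mean of two replicates above 20%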;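 note: 0% = compound-free wells with enzyme and 100% = wells lacking proteasome; stock transfer was 100 nL into about 20 µL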
Target sequence (Q9Y5K5 whole entry, looked up): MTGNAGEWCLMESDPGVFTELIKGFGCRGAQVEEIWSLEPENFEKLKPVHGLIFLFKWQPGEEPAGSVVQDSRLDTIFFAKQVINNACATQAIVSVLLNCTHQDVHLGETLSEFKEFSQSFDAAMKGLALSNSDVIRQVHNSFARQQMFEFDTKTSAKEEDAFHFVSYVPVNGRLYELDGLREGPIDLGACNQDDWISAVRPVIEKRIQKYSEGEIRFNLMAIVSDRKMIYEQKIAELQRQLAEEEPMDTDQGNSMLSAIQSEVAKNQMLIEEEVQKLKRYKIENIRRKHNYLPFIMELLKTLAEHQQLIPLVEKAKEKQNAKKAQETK
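Test system – human UCH37 enzyme supplied as purified proteasome complex · Incubation – 30 min preincubation with enzyme, 25 min cleavage at room temperature · Detection – AMC fluorescence from Ub-AMC cleavage, excitation 355 nm, emission 460 nm · Benchmarks – no-proteasome wells (full inhibition) and compound-free wells (no inhibition)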
T cruzi repl: inhibitors of intracellular T. cruzi growth, primary screen, luminescence, NIH3T3 host cells. actives 1.4% (n = 300,000). AID 1885, 2009. T. cruzi beta-gal in NIH3T3, 90 h. inhibition, % (concentration not given with the values);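 active = mean inhibition across valid replicates above about 55%, limit read from the data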;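 note: signal also drops with host cell toxicity which is not excluded here; 0% = plate median of DMSO wells and 100% = zero luminescence signal; higher percent means less beta-gal luminescence so fewer parasites; stock transfer was 50 nL into about 50 µL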
Beta cell apopt: inhibitors of cytokine-induced beta cell apoptosis, primary screen, luminescence | protection from apoptosis, % (test concentration not listed) | actives 0.8% (n = 300,000) | INS-1E cytokine-induced death, ATP luminescence, 48 h; percent of positive-control rescue, neutral wells zero;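 active = all replicates at 75% or more, or half of them and the mean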;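 note: 0% = cytokine-treated negative control wells and 100% = positive control rescue; higher means more ATP so stronger rescue from cytokine killing; wells of about 40 µL received 100 nL stock; the first replicate is given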
FGF22 binding: binders of human FGF22 protein, primary screen, FGF22 synaptogenesis inhibitor project, biophysical, thermal shift, single point; Fibroblast growth factor 22 (Homo sapiens), Q9HCT0; recombinant FGF22 thermal shift, SYPRO orange fluorescence; percent of sucrose octasulfate shift, DMSO zero; calls only at 9.99 µM; actives 1.5% (n = 340,000); AID 651658, 2012;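 active = melting point raised past a set limit in the mean and every replicate; three in four hits are not shown here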
Target sequence (Q9HCT0 whole entry, looked up): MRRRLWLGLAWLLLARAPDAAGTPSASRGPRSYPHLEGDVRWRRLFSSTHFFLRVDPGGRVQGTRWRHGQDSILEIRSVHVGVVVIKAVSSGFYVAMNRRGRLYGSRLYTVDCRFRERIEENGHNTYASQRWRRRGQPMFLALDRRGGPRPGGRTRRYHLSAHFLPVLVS
MLL AF4-AF9 inh: inhibitors of AF4 peptide binding to AF9, primary screen, biochemical, AlphaScreen, biotin-AF4 peptide, FLAG-AF9, single point; Protein AF-9 (Homo sapiens), P42568; inhibition, % at 10 µM; actives 0.47% (n = 350,000); AID 651704, 2012;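 active = every replicate reaching a set inhibition limit, whatever the replicate mean, cut at about 25% in these data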;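 note: 0% = plate neutral control median and 100% = total signal loss; the record names both 10 and 1 µM as test concentration; the first replicate is given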
Target sequence (P42568 whole entry, looked up): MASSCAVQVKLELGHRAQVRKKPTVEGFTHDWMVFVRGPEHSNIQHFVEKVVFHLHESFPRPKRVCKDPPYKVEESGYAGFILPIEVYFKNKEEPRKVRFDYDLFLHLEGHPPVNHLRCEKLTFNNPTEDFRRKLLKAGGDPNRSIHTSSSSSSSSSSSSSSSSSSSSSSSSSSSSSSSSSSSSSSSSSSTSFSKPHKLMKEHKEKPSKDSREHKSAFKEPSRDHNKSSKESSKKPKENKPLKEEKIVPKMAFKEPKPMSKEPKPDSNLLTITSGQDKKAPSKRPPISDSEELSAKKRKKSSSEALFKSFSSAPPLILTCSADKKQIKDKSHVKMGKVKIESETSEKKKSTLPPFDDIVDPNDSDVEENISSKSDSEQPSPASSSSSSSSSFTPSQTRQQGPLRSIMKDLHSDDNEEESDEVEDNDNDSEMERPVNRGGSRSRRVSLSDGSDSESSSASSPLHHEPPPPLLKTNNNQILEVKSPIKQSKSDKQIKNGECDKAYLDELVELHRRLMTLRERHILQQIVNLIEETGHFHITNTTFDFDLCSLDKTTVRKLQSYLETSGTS
Ecoli growth: E. coli growth inhibition, primary screen, OD600. OD600 absorbance (no concentration beside the values). AID 1053175, 2014. Escherichia coli growth, 23 h; hits give low values. actives 0.21% (n = 330,000);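 active = OD600 absorbance below the run mean of sample wells minus 3.6 SD, in any replicate, cut at about 0.56 in these data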;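 note: stock transfer was 300 nL into about 60 µL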
Ecoli rRNA inh OD600: second read-out of Ecoli rRNA inh, no call of its own (marks repeat the call); OD600 change, %; measured here: OD600 growth;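 optical density of the mix in the first replicate; 0 = DMSO median and -100 = no signal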
Ecoli rRNA inh RFP: second read-out of Ecoli rRNA inh, no call of its own (marks repeat the call); RFP signal change, %; measured here: RFP humanized mutant strains;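 first replicate; 0 = DMSO median and -100 = no signal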
Starred values were filed as active, the others as inactive. This is a subset. The share of hits here may be higher or lower than overall.

`Cn1nc(C(=O)NC2CCCN(Cc3ccccc3F)C2)c2ccccc2c1=O` (stereo not given) gave Ecoli rRNA inh -1.6, A1 inh -0.4, UCH37 DUB inh 1.4, T cruzi repl 22.4, Beta cell apopt 13.3, FGF22 binding inactive, MLL AF4-AF9 inh -12.9, Ecoli growth 0.701, Ecoli rRNA inh OD600 -5.0 and Ecoli rRNA inh RFP -1.3.
`Cc1ccc(-c2nc3ccccc3c(=O)n2NC(=O)COc2ccccc2)cc1` gave A1 inh 0.3, UCH37 DUB inh -1.9, T cruzi repl 8.0, Beta cell apopt 2.0, FGF22 binding inactive, MLL AF4-AF9 inh 1.6 and Ecoli growth 0.718.
`CCCC1Cc2c(sc(N)c2C#N)CO1` (stereo not given) gave Ecoli rRNA inh 6.2, A1 inh -0.3, UCH37 DUB inh 7.2, T cruzi repl 0.4, Beta cell apopt 3.1, FGF22 binding inactive, MLL AF4-AF9 inh 4.0, Ecoli growth 0.691, Ecoli rRNA inh OD600 1.6 and Ecoli rRNA inh RFP 16.9.
For CC(=O)C1=C(O)C(=O)N(c2ccc(S(N)(=O)=O)cc2)C1c1cccc([N+](=O)[O-])c1 (stereo not given) the results were Ecoli rRNA inh 10.5, A1 inh -0.1, UCH37 DUB inh 10.3, T cruzi repl 8.0, Beta cell apopt -9.9, FGF22 binding inactive, MLL AF4-AF9 inh -1.0, Ecoli growth 0.69, Ecoli rRNA inh OD600 2.4 and Ecoli rRNA inh RFP -5.6.
For COC(=O)c1cc(NC(=O)COC(=O)CN2C(=O)C3CC=CCC3C2=O)cc(C(=O)OC)c1 (stereo not given) the results were Ecoli rRNA inh 1.7, UCH37 DUB inh 2.6, FGF22 binding inactive, MLL AF4-AF9 inh 0.5, Ecoli growth 0.662, Ecoli rRNA inh OD600 -3.7 and Ecoli rRNA inh RFP -0.8.
For Cc1ccc(NC(=O)CNc2ccccc2N2CCCC2=O)cc1S(=O)(=O)N1CCCCC1 the results were A1 inh 1.4, UCH37 DUB inh 1.8, Beta cell apopt -0.4, FGF22 binding inactive, MLL AF4-AF9 inh -0.7 and Ecoli growth 0.693.
`Cc1cccc(-n2ccnc2CN2CCN(C3CCCC3)C(CCO)C2)c1` (stereo not given) gave Ecoli rRNA inh 12.0, A1 inh -0.7, UCH37 DUB inh 2.5, T cruzi repl 7.3, Beta cell apopt 2.9, FGF22 binding inactive, Ecoli growth 0.689, Ecoli rRNA inh OD600 4.4 and Ecoli rRNA inh RFP -6.2.
COc1ccc(C)cc1S(=O)(=O)N1CCC(C(=O)NCCc2ccccc2)CC1 was read as A1 inh 0.1, UCH37 DUB inh -0.6, T cruzi repl 6.7, Beta cell apopt -1.0 and Ecoli growth 0.67.
`Cc1ccc(C(C)C)c(OCC(=O)NNC2=CC(=O)CC(C)(C)C2)c1` gave Ecoli rRNA inh 13.8, A1 inh -0.3, UCH37 DUB inh 4.0, T cruzi repl 14.2, Beta cell apopt -5.1, FGF22 binding inactive, MLL AF4-AF9 inh -1.1, Ecoli growth 0.664, Ecoli rRNA inh OD600 5.1 and Ecoli rRNA inh RFP 11.7.
For COc1ccc(NC(=O)CSc2nc3[nH]ncc3c(=O)[nH]2)c(OC)c1 the results were Ecoli rRNA inh 6.6, A1 inh 1.4, UCH37 DUB inh -0.1, T cruzi repl -2.7, FGF22 binding inactive, MLL AF4-AF9 inh 3.4, Ecoli growth 0.736, Ecoli rRNA inh OD600 10.7 and Ecoli rRNA inh RFP 1.7.
Screening COC(=O)C1=C(C)Nc2nnnn2C1c1cccs1 (stereo not given) returned A1 inh 0.9, UCH37 DUB inh 0.1, T cruzi repl -10.2, Beta cell apopt 0.5 and Ecoli growth 0.716.
`Cc1ccc(C(=O)Nc2ccc3c(c2)OCCO3)cc1S(=O)(=O)N1CCOCC1` gave Ecoli rRNA inh -8.1, A1 inh -1.8, UCH37 DUB inh -1.5, Beta cell apopt 10.2, FGF22 binding inactive, MLL AF4-AF9 inh 2.2, Ecoli growth 0.673, Ecoli rRNA inh OD600 4.1 and Ecoli rRNA inh RFP 5.4.
COC(=O)CSc1nnc(CNC(=O)c2ccc(S(=O)(=O)N3CCOCC3)cc2)n1C was read as Ecoli rRNA inh 19.6, A1 inh -0.3, UCH37 DUB inh 2.0, T cruzi repl -11.4, Beta cell apopt 0.3, FGF22 binding inactive, MLL AF4-AF9 inh -0.1, Ecoli growth 0.709, Ecoli rRNA inh OD600 11.9 and Ecoli rRNA inh RFP 3.1.
Screening CSc1cccc(NC(=S)NC(=O)c2cccnc2)c1 returned Ecoli rRNA inh 2.0, A1 inh 1.2, UCH37 DUB inh 7.2, T cruzi repl 6.1, Beta cell apopt -3.7, FGF22 binding inactive, MLL AF4-AF9 inh -0.3, Ecoli growth 0.69, Ecoli rRNA inh OD600 5.0 and Ecoli rRNA inh RFP -4.5.
COc1ccccc1Nc1nnc(SCC(=O)N2CCCC2)s1 was read as Ecoli rRNA inh 2.0, A1 inh 0.9, UCH37 DUB inh 0.1, T cruzi repl 10.0, Beta cell apopt 3.7, FGF22 binding inactive, MLL AF4-AF9 inh -6.4, Ecoli growth 0.652, Ecoli rRNA inh OD600 -2.0 and Ecoli rRNA inh RFP -3.0.
COC(=O)c1[nH]c2cc(C)ccc2c1NC(=O)CN1CCCc2ccccc21 was read as A1 inh -0.6, UCH37 DUB inh 5.0, T cruzi repl 59.4*, Beta cell apopt -7.0 and Ecoli growth 0.713.
Screening CCOC(=O)C1(C(=O)OCC)NC(=O)CC1C(C)C (stereo not given) returned Ecoli rRNA inh 7.5, UCH37 DUB inh -2.6, FGF22 binding inactive, MLL AF4-AF9 inh 1.8, Ecoli growth 0.676, Ecoli rRNA inh OD600 21.0 and Ecoli rRNA inh RFP -8.4.
Screening COc1cc2c(cc1OC)CC(C(=O)NCc1ccccc1)NC2 (stereo not given) returned Ecoli rRNA inh 8.2, A1 inh 0.5, UCH37 DUB inh -0.4, T cruzi repl -5.3, Beta cell apopt -6.6, FGF22 binding inactive, MLL AF4-AF9 inh 0.2, Ecoli growth 0.679, Ecoli rRNA inh OD600 6.7 and Ecoli rRNA inh RFP 0.0.
CC(=O)N/N=C/c1cc(C(C)(C)C)cc(/C=N/NC(C)=O)c1O was read as Ecoli rRNA inh -16.1, A1 inh 0.6, T cruzi repl -0.8, Beta cell apopt 18.7, FGF22 binding inactive, MLL AF4-AF9 inh 2.1, Ecoli rRNA inh OD600 -24.3 and Ecoli rRNA inh RFP -4.3.
Screening CCc1cc2cc(C)ccc2nc1SCC(=O)NNC(=O)c1ccco1 returned Ecoli rRNA inh -3.3, A1 inh 0.3, UCH37 DUB inh 3.1, T cruzi repl -7.5, Beta cell apopt 1.0, FGF22 binding inactive, MLL AF4-AF9 inh 2.2, Ecoli growth 0.676, Ecoli rRNA inh OD600 -3.3 and Ecoli rRNA inh RFP 2.8.

Reprinted at random: 2 records from the list
`CCCC1Cc2c(sc(N)c2C#N)CO1` (stereo not given) gave Ecoli rRNA inh 6.2, A1 inh -0.3, UCH37 DUB inh 7.2, T cruzi repl 0.4, Beta cell apopt 3.1, FGF22 binding inactive, MLL AF4-AF9 inh 4.0, Ecoli growth 0.691, Ecoli rRNA inh OD600 1.6 and Ecoli rRNA inh RFP 16.9.
For COc1ccc(NC(=O)CSc2nc3[nH]ncc3c(=O)[nH]2)c(OC)c1 the results were Ecoli rRNA inh 6.6, A1 inh 1.4, UCH37 DUB inh -0.1, T cruzi repl -2.7, FGF22 binding inactive, MLL AF4-AF9 inh 3.4, Ecoli growth 0.736, Ecoli rRNA inh OD600 10.7 and Ecoli rRNA inh RFP 1.7.

(next part)
`CC(OC(=O)CCCN=C1NS(=O)(=O)c2ccccc21)C(=O)Nc1ccccc1[N+](=O)[O-]` (stereo not given) gave Ecoli rRNA inh -7.2, A1 inh 1.3, UCH37 DUB inh 2.4, T cruzi repl 3.1, FGF22 binding inactive, MLL AF4-AF9 inh 4.3, Ecoli growth 0.67, Ecoli rRNA inh OD600 -6.0 and Ecoli rRNA inh RFP -6.3.
Screening COc1ccc(C(=O)Nc2cccc3c2CCCC3)cc1OC returned Ecoli rRNA inh 5.5, A1 inh 1.0, UCH37 DUB inh 4.0, T cruzi repl -8.2, Beta cell apopt -4.0, FGF22 binding inactive, MLL AF4-AF9 inh -0.7, Ecoli growth 0.712, Ecoli rRNA inh OD600 4.7 and Ecoli rRNA inh RFP -3.3.
`Cc1noc(C)c1COc1ccccc1C(=O)N1CCN(S(=O)(=O)c2ccc(F)c(F)c2)CC1` gave Ecoli rRNA inh 2.4, UCH37 DUB inh 2.9, FGF22 binding inactive, MLL AF4-AF9 inh 2.0, Ecoli growth 0.672, Ecoli rRNA inh OD600 -1.5 and Ecoli rRNA inh RFP -1.8.
Screening O=C(/C=C/c1cccc([N+](=O)[O-])c1)NCc1ccco1 returned A1 inh -0.1, UCH37 DUB inh 6.9, T cruzi repl 8.0, Beta cell apopt -3.2 and Ecoli growth 0.657.
`CN(C(=O)c1ccco1)c1nnc(C23CC4CC(CC(C4)C2)C3)s1` gave Ecoli rRNA inh -14.2, A1 inh 0.2, UCH37 DUB inh 4.8, T cruzi repl 4.7, Beta cell apopt 5.4, FGF22 binding inactive, MLL AF4-AF9 inh -1.1, Ecoli growth 0.788, Ecoli rRNA inh OD600 -35.3 and Ecoli rRNA inh RFP -8.9.
For CCN1C(=O)[C@H]2[C@@H](c3ccccc3)N3C(=O)N(c4cccc(F)c4)C(=O)[C@@]3(CC(C)C)[C@H]2C1=O the results were A1 inh 0.4, UCH37 DUB inh 1.2, T cruzi repl 0.5 and Beta cell apopt -3.3.
Screening N#Cc1ccsc1NC(=O)C1CCN(C(=O)c2ccc(Cl)cc2)CC1 returned Ecoli rRNA inh -8.6, A1 inh 0.4, UCH37 DUB inh 2.8, T cruzi repl -6.9, Beta cell apopt -0.2, FGF22 binding inactive, MLL AF4-AF9 inh -4.4, Ecoli growth 0.714, Ecoli rRNA inh OD600 -13.1 and Ecoli rRNA inh RFP -3.4.
`O=C(c1c(Cl)cccc1Cl)N1CCCCCC1` gave A1 inh 2.1, UCH37 DUB inh -1.0, T cruzi repl 0.5, Beta cell apopt -0.7 and Ecoli growth 0.8.
`CC1(C)CC(=O)C=C(NC2CCCCCC2)C1` gave Ecoli rRNA inh 1.4, A1 inh 0.2, UCH37 DUB inh 1.4, T cruzi repl 17.0, Beta cell apopt -4.0, Ecoli growth 0.694, Ecoli rRNA inh OD600 -26.1 and Ecoli rRNA inh RFP -4.3.
For CC[n+]1ccc(/C=C/c2c[nH]c3ccccc23)cc1 the results were Ecoli rRNA inh 78.6, A1 inh 0.3, T cruzi repl 70.5*, Beta cell apopt 73.1, FGF22 binding inactive, MLL AF4-AF9 inh 3.7, Ecoli rRNA inh OD600 11.1 and Ecoli rRNA inh RFP 10.1.
